YopH inh: blocks Yersinia enterocolitica YopH tyrosine phosphatase | fluorescence Ex485/Em525 | inhibition, %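 (about 10 µM by stock and volumes)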 | hit rate 0.16% among 140,000 | AID 898;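 active means inhibition of 50% or more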;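 further: controls were vehicle for no effect and minimum signal wells for full effect; inactives centre near -20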
RecA intein inh: Mtb RecA intein splicing inhibition | hit rate 0.75% among 290,000 | AID 2221 | inhibition, %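 (about 9 µM by stock and volumes)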 | cell-free RecA intein splicing, fluorescence; in the data active means inhibition above about 30%; inconclusive means no clear call, values can overlap the other calls;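 further: 0% = vehicle wells and 100% = reference inhibitor control wells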
Target sequence (P9WHJ3 whole entry, looked up): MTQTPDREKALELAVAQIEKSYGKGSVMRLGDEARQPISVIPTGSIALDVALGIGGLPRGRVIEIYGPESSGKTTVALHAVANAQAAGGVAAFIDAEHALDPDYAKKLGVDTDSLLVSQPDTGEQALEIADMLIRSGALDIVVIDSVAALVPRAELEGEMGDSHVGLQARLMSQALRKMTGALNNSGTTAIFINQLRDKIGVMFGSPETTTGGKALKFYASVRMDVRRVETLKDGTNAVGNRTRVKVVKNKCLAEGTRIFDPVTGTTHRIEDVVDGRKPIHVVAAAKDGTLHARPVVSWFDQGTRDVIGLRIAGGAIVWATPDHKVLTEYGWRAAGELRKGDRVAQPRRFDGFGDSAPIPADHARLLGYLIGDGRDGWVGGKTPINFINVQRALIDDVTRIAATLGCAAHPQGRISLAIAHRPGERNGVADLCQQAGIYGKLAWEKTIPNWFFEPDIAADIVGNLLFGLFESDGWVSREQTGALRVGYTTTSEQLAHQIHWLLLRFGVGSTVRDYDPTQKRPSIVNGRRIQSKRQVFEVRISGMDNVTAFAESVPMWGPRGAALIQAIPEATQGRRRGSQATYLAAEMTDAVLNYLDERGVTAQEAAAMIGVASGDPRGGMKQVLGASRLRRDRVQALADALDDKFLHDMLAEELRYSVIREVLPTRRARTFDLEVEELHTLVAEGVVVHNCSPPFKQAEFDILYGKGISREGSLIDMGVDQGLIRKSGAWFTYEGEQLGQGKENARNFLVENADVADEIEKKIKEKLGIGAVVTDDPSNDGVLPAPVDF
Mtb betalactam: beta-lactam sensitization of Mtb H37Rv | M. tuberculosis H37Rv growth with meropenem, percent inhibition; hits of this screen are not shown here | inhibition, % at 25 µM | hit rate 0.27% among 330,000;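 active means about 74% or more and at least 40 points above the plate without the antibiotic, then above 30% in a dose series; inconclusive means first-round hits that could not be retested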;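 further: growth measured after seven days incubation then overnight dye step; 0% = bacteria only wells and 100% = bacteria with antibiotic; twin plates without the antibiotic show which effects depend on it; some results filed as inactive read as strong as hits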
Arbovirus inh: blocks arbovirus infection | arbovirus infection cell-based antiviral screen | inhibition, % at 10 µM | hit rate 0.37% among 200,000;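 active means inhibition from about 30%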;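 further: bluetongue infection of BSR cells; cell survival read as ATP light after 72 h; 0% = infected wells without compound and 100% = uninfected wells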
Mtb growth: M. tuberculosis H37Rv growth inhibitors, H37Rv strain (AID 1626) | M. tuberculosis H37Rv growth inhibition; higher % means a stronger effect | inhibition, % at 10 µM, or IC50 in µM where a hit was titrated | hit rate 0.95% among 220,000;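 active means confirmed in a dose series; inconclusive means inhibition above 80% but not taken into the dose series; inactive means below 80% or under 30% at every dose of the series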;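 further: bacteria incubated seven days before Alamar blue readout; 0% = bacteria only wells and 100% = bacteria with antibiotic wells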
Arbovirus inh repeat: second read-out of Arbovirus inh, no call of its own (marks repeat the call); inhibition, %; measured here: 10K subset replicate screen; many hits read low in the repeat;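 first of two repeat runs on a subset; 0% = infected and 100% = uninfected wells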
* hit, by the source's call.

What do the screens show for `COc1ccc(NC(=O)CCNC(=O)c2ccccc2Cl)cc1OC`?
RecA intein inh: -0.4; Mtb betalactam: 0

How did O=C(O)CCC(=O)N1N=C(c2cccs2)CC1c1cn(-c2ccccc2)nc1-c1ccccc1 (configuration not stated) do in these assays?
YopH inh: 6; RecA intein inh: 7.0; Mtb betalactam: -4; Arbovirus inh: -8; Mtb growth: 5%

How did CCCNC(=O)c1ccc(Cn2c(=S)[nH]c3c([nH]c4ccc(OC)cc43)c2=O)cc1 do in these assays?
YopH inh: -36; RecA intein inh: -5.8; Mtb betalactam: 2; Arbovirus inh: -8; Mtb growth: -17%

Results for Cc1nn(CC(=O)NCc2cccnc2)c(=O)c2ccccc12 ?
YopH inh: -35; Mtb betalactam: -17; Arbovirus inh: 0; Mtb growth: -16%

Results for CC1(C)N=C(c2ccc(Cl)cc2)C(=O)N1 ?
YopH inh: -20; RecA intein inh: 0.3; Mtb betalactam: -3; Arbovirus inh: -7; Mtb growth: -2%

Results for COc1cccc(/C(O)=C2/C(=O)C(=O)N(CCN3CCOCC3)C2c2cccs2)c1 (configuration not stated) ?
YopH inh: -36; RecA intein inh: -0.3; Mtb betalactam: 1; Arbovirus inh: -3

What do the screens show for `COc1ccc(C(=O)NC(C)c2ccc(-n3ccnc3)cc2)c(OC)c1` (configuration not stated)?
RecA intein inh: 2.6; Mtb betalactam: -16

How did COCCN(Cc1ccccc1)C(=O)c1cc(S(=O)(=O)N2CCCCCC2)ccc1OC do in these assays?
RecA intein inh: -0.2; Mtb betalactam: -4

Results for CN(C)CCCNC(=O)c1cc(C(=O)c2ccccc2)c[nH]1 ?
RecA intein inh: -1.4; Mtb betalactam: -6

How did CCSc1nc(N)nc(-c2cccs2)c1C#N do in these assays?
YopH inh: -9; RecA intein inh: 6.3; Mtb betalactam: -8; Arbovirus inh: -17; Mtb growth: 0%

What do the screens show for `COc1ccc(NC(=O)c2cc(-c3ccc(C)c(C)c3O)n[nH]2)cc1Cl`?
RecA intein inh: 1.9; Mtb betalactam: 1

How did CC(C)n1c(NCc2c[nH]c3ccccc23)nc2ccccc21 do in these assays?
YopH inh: 2; RecA intein inh: 10; Mtb betalactam: -3; Arbovirus inh: 23

Results for CC(C)OC(=O)NCCOC(=O)Nc1ccc(Cl)cc1 ?
RecA intein inh: 0.5; Mtb betalactam: 2; Arbovirus inh: 2; Mtb growth: -5%

How did CCOC(=O)Cn1nc(NC(=O)c2ccc(C(=O)OC)cc2)cc1C do in these assays?
RecA intein inh: -0.6; Mtb betalactam: 1

What do the screens show for `CCOC(=O)[C@@H]1[C@H]2COc3ccccc3[C@@H]2N2C(=O)N(c3ccccc3)C(=O)[C@@]12C`?
RecA intein inh: 0.6; Mtb betalactam: -7

How did COc1cc(S(=O)(=O)N2CCN(c3ccccc3F)CC2)ccc1Cl do in these assays?
YopH inh: -45; RecA intein inh: 5.8; Mtb betalactam: -8; Arbovirus inh: 23; Mtb growth: 1%

How did CCOc1ccc(NC(=O)CN(C)S(=O)(=O)c2ccc(-c3ccc(=O)[nH]n3)s2)cc1 do in these assays?
RecA intein inh: -1.4; Mtb betalactam: 0

How did CC(C)(C)NC(=O)CN(C(=O)C1(C)CC(=O)N=C2C=CC=CN21)C1CCCC1 (configuration not stated) do in these assays?
YopH inh: 9; RecA intein inh: 0.1; Mtb betalactam: -25; Arbovirus inh: 2; Mtb growth: 2%

What do the screens show for `O=C(COC(=O)C1CCCO1)Nc1cccc(C(F)(F)F)c1` (configuration not stated)?
YopH inh: -15; RecA intein inh: 0.2; Mtb betalactam: 24; Arbovirus inh: 2; Mtb growth: -2%; Arbovirus inh repeat: -1

What do the screens show for `CC(C)C1O/C(=N/C(=O)Nc2ccc(Cl)c(Cl)c2)NC1=O` (configuration not stated)?
YopH inh: -29; RecA intein inh: 0.2; Mtb betalactam: 94; Arbovirus inh: -32; Mtb growth: 61%

How did CC(C)Oc1ccccc1/C=N/n1nnnc1N do in these assays?
RecA intein inh: 2.3; Mtb betalactam: -5

How did Cc1ccc(C(=O)NCCNC(=O)COc2ccc(Cl)cc2)cn1 do in these assays?
RecA intein inh: -4.8; Mtb betalactam: 2

What do the screens show for `COC(=O)c1cc(C(=O)N2CCOCC2)cc([N+](=O)[O-])c1`?
RecA intein inh: -0.5; Mtb betalactam: -3; Arbovirus inh: 0; Mtb growth: -2%

Results for COc1cc(CN(C(=S)NCC(=O)NC2CC2)C2CCCC2)cc(OC)c1OC ?
YopH inh: -21; RecA intein inh: -1.9; Mtb betalactam: 2; Arbovirus inh: 5; Mtb growth: -1%

What do the screens show for `CC(C)C[C@H](NC(=O)[C@@H]1Cc2ccccc2CN1)C(=O)Nc1ccc(C(C)C)cc1`?
RecA intein inh: 15; Mtb betalactam: 11

How did Cc1oc(-c2ccccc2F)nc1CS(=O)CC(=O)NCc1ccc(Cl)cc1 (configuration not stated) do in these assays?
RecA intein inh: 0.6; Mtb betalactam: 3

What do the screens show for `CN(Cc1n[nH]c(=S)n1C)S(=O)(=O)c1ccccc1`?
YopH inh: -26; RecA intein inh: 1.3; Mtb betalactam: 1; Arbovirus inh: 1; Mtb growth: -4%

How did CC(=O)NCCc1ccc(S(=O)(=O)N(C)C2CCS(=O)(=O)C2)cc1 (configuration not stated) do in these assays?
YopH inh: 1; RecA intein inh: -1.5; Mtb betalactam: -4; Arbovirus inh: 3; Mtb growth: -12%

How did COc1cccc(/C=N/NC(=S)Nc2cccc(C(=O)O)c2)c1 do in these assays?
Mtb betalactam: 3; Arbovirus inh: 4; Mtb growth: -12%

How did O=C(CN1C(=O)C2C3C=CC(C3)C2C1=O)NCc1ccccc1 (configuration not stated) do in these assays?
YopH inh: -115; RecA intein inh: -1.1; Mtb betalactam: -10; Arbovirus inh: -3; Mtb growth: -3%

Results for Cc1c(C#N)c(SCC(N)=O)nc2c1CCCC2 ?
YopH inh: 3; RecA intein inh: 2.0; Mtb betalactam: 12; Arbovirus inh: 7; Mtb growth: 4%

Results for O=C(NCCc1ccc(F)cc1)Nc1ccccc1Cl ?
RecA intein inh: -0.5; Mtb betalactam: 1

How did O=C(C1CCC1)N1CCc2cc(S(=O)(=O)NCCCN3CCCCC3)ccc21 do in these assays?
RecA intein inh: -7.9; Mtb betalactam: -1

What do the screens show for `CCOC(=O)C(NC(C)=O)(OCc1ccc(F)cc1)C(F)(F)F` (configuration not stated)?
YopH inh: -48; RecA intein inh: -1.6; Mtb betalactam: -10; Arbovirus inh: 16; Mtb growth: 0%

How did COc1ccccc1NC(=O)NCCN1CCN(c2cccc(Cl)c2)CC1 do in these assays?
RecA intein inh: -1.7; Mtb betalactam: inconclusive

What do the screens show for `CCOC(=O)N1CCN(C(=O)C2CCN(S(=O)(=O)c3ccc(NC(C)=O)cc3)CC2)CC1`?
RecA intein inh: -1.7; Mtb betalactam: -4

Results for COc1ccc2occ(NC(C)=O)c2c1 ?
YopH inh: -29; RecA intein inh: -2.0; Mtb betalactam: -2; Arbovirus inh: 1; Mtb growth: -4%

Results for Cc1ccc(S(=O)(=O)NCCC(=O)NC2CCCC2)cc1 ?
YopH inh: -29; Mtb betalactam: -8; Arbovirus inh: 6

What do the screens show for `CCOC(=O)C(=O)C1=C(N2CCOCC2)/C(=C\c2cccc([N+](=O)[O-])c2)CC1`?
YopH inh: -5; RecA intein inh: 6.1; Mtb betalactam: 17; Arbovirus inh: 3; Mtb growth: 3%

How did COc1ccc(-n2c(SCC(=O)/C(C#N)=C(\C)N)nc3ccccc3c2=O)cc1OC do in these assays?
RecA intein inh: 0.4; Mtb betalactam: 1; Mtb growth: 2%

Of the compounds above, these contain a CF3 group.
What do the screens show for `O=C(COC(=O)C1CCCO1)Nc1cccc(C(F)(F)F)c1` (configuration not stated)?
YopH inh: -15; RecA intein inh: 0.2; Mtb betalactam: 24; Arbovirus inh: 2; Mtb growth: -2%; Arbovirus inh repeat: -1

What do the screens show for `CCOC(=O)C(NC(C)=O)(OCc1ccc(F)cc1)C(F)(F)F` (configuration not stated)?
YopH inh: -48; RecA intein inh: -1.6; Mtb betalactam: -10; Arbovirus inh: 16; Mtb growth: 0%

Of the compounds above, 2 contain a COOH group.
How did O=C(O)CCC(=O)N1N=C(c2cccs2)CC1c1cn(-c2ccccc2)nc1-c1ccccc1 (configuration not stated) do in these assays?
YopH inh: 6; RecA intein inh: 7.0; Mtb betalactam: -4; Arbovirus inh: -8; Mtb growth: 5%

How did COc1cccc(/C=N/NC(=S)Nc2cccc(C(=O)O)c2)c1 do in these assays?
Mtb betalactam: 3; Arbovirus inh: 4; Mtb growth: -12%

(continued)
Results for CCN1CCN(c2nc(C)nc3c2sc(=S)n3C)CC1 ?
YopH inh: -17; Arbovirus inh: 3; Mtb growth: -11%; Arbovirus inh repeat: 3

How did CCN1CCN(C(=O)CSCc2nc(-c3ccc(OC)c(OC)c3)oc2C)CC1 do in these assays?
YopH inh: 2; RecA intein inh: -4.4; Mtb betalactam: 5; Arbovirus inh: -1; Arbovirus inh repeat: 3

What do the screens show for `CCOc1ccc(N(CC(=O)NCc2ccc(F)cc2)S(=O)(=O)c2c(C)noc2C)cc1`?
RecA intein inh: 0.1; Mtb betalactam: -4; Arbovirus inh: -1; Mtb growth: 2%; Arbovirus inh repeat: -8

Results for Cn1ncc2c(O/N=C(\N)c3ccc(C(F)(F)F)cc3)ncnc21 ?
RecA intein inh: 7.4; Mtb betalactam: -3; Mtb growth: -7%

How did O=C(c1ccco1)N1N=C(c2cccs2)CC1c1ccco1 (configuration not stated) do in these assays?
RecA intein inh: 4.0; Mtb betalactam: 9; Arbovirus inh: 3; Mtb growth: 4%

How did CC(CC(=O)O)CC(=O)Nc1ccc(S(N)(=O)=O)cc1 (configuration not stated) do in these assays?
YopH inh: -26; RecA intein inh: -2.7; Mtb betalactam: -6; Arbovirus inh: 7; Mtb growth: -7%

What do the screens show for `COc1ccc(C(Nc2cccc([N+](=O)[O-])c2)P(=O)(OC(C)C)OC(C)C)cc1` (configuration not stated)?
RecA intein inh: 2.0; Mtb betalactam: -1; Mtb growth: -3%

How did CCc1ccccc1NC(=S)N(CCN1CCOCC1)C1CCN(C(C)=O)CC1 do in these assays?
RecA intein inh: -1.5; Mtb betalactam: -8; Arbovirus inh: 6; Mtb growth: -1%

What do the screens show for `CSC(=NNC(=O)c1ccccc1O)SC`?
YopH inh: -2; RecA intein inh: -2.3; Mtb betalactam: 8; Arbovirus inh: 13; Mtb growth: -4%

What do the screens show for `CC(=O)Nc1cccc(NC(=O)c2ccccc2OCc2c(C)noc2C)c1`?
RecA intein inh: 0.7; Mtb betalactam: -10

How did CC(Cc1ccccc1)NC(=O)CCCN1C(=O)c2ccccc2C1=O (configuration not stated) do in these assays?
RecA intein inh: -2.3; Mtb betalactam: 2

How did Cc1c(Cc2ccccc2)c(=O)oc2c(C)c(OCC(=O)NCC3CCC(C(=O)O)CC3)ccc12 (configuration not stated) do in these assays?
RecA intein inh: -1.6; Mtb betalactam: -1

Results for CC(C)(C)C(=O)COC(=O)CNC(=O)c1ccc(Oc2ccccc2)cc1 ?
YopH inh: -7; RecA intein inh: 0.8; Mtb betalactam: 2; Arbovirus inh: -3; Mtb growth: -8%

Results for COc1ccc(NC(=O)CSc2nnnn2C2CC3C=CC2C3)cc1 (configuration not stated) ?
RecA intein inh: 2.6; Mtb betalactam: 3

Results for COc1ccc(Cc2nnc(NC(=O)c3c(-c4ccccc4)noc3C)s2)cc1OC ?
YopH inh: -23; Mtb betalactam: 85; Arbovirus inh: 11

What do the screens show for `CCCCN(C(=O)CSc1nnc(Nc2ccccc2)s1)c1c(N)n(CCC)c(=O)[nH]c1=O`?
RecA intein inh: 1.6; Mtb betalactam: 0; Arbovirus inh: -2; Mtb growth: 1%

Results for COc1ccc(C(=O)n2cnnc2N)cc1 ?
YopH inh: -1; RecA intein inh: 5.3; Mtb betalactam: -7; Arbovirus inh: 2; Mtb growth: -2%

What do the screens show for `CCN(CC(=O)Nc1ccc(OC)cc1)CC(=O)Nc1cccc(C#N)c1`?
RecA intein inh: -2.0; Mtb betalactam: -4

What do the screens show for `COc1ccc(NC(=O)C2CC(=O)OC2(C)C)cc1` (configuration not stated)?
YopH inh: 10; RecA intein inh: 4.4; Mtb betalactam: 6; Arbovirus inh: 2; Mtb growth: -9%

How did O=C(NCc1ccco1)/C(=C/C=C\c1ccccc1)NC(=O)c1ccc(Br)o1 do in these assays?
YopH inh: -38; RecA intein inh: 3.7; Mtb betalactam: 7; Arbovirus inh: -4; Mtb growth: 4%

Results for O=C(CSc1cn[nH]n1)Nc1ccc(Cl)cc1Cl ?
RecA intein inh: -5.2; Mtb betalactam: 3

What do the screens show for `COc1ccc(NC(=O)CSc2nnc(NC(=O)C3CC3)s2)cc1OC`?
RecA intein inh: -1.5; Mtb betalactam: -20

Not all compounds are listed (hit frequency here may not be typical).
